BmaI1 enzyme: BmaI1 acyl-homoserine lactone synthase inhibition – biochemical, fluorescence intensity, with counterscreen (AID 720554). inhibition, %. BmaI1 enzyme assay, fluorescence intensity; active compounds read high; test concentration not given here; a few actives read low; strong numbers were not always called active. 0.4% of 12,000 active;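 active means both replicates within 2 robust z-scores of the inhibited control and a quiet counterscreen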;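 further: 0% = uninhibited enzyme and 100% = inhibited control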
BmaI1 enzyme counterscreen: also measured in BmaI1 enzyme; calls as there; inhibition, %; measured here: counterscreen; design of the counterscreen not given here;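 first of two replicates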
* hit, by the source's call. An excerpt, so the mix of outcomes need not match the whole.

1) C[C@H]1COc2c(N3CCN(C)CC3)c(F)cc3c(=O)c(C(=O)O)cn1c23
- BmaI1 enzyme = -4
- BmaI1 enzyme counterscreen = 0

2) c1ccc2c(CC3=NCCN3)cccc2c1
- BmaI1 enzyme = -12
- BmaI1 enzyme counterscreen = -6

3) CC(=O)[C@H]1CC[C@H]2[C@@H]3C[C@H](C)C4=CC(=O)CC[C@]4(C)[C@H]3[C@@H](O)C[C@]12C
- BmaI1 enzyme = -7
- BmaI1 enzyme counterscreen = -4

4) CC(Oc1c(Cl)cccc1Cl)C1=NCCN1 (configuration not stated)
- BmaI1 enzyme = 56
- BmaI1 enzyme counterscreen = 12

5) COc1cc2nc(N3CCN(C(=O)C4COc5ccccc5O4)CC3)nc(N)c2cc1OC (configuration not stated)
- BmaI1 enzyme = 18
- BmaI1 enzyme counterscreen = 25

6) COc1nc(C)nc(Cl)c1NC1=NCCN1
- BmaI1 enzyme = -2
- BmaI1 enzyme counterscreen = 0

7) NS(=O)(=O)c1cc2c(cc1C(F)(F)F)NC(Cc1ccccc1)NS2(=O)=O (configuration not stated)
- BmaI1 enzyme = -3
- BmaI1 enzyme counterscreen = 0

8) C=CC1=C(C(=O)O)N2C(=O)[C@@H](NC(=O)C(=NO)c3csc(N)n3)[C@H]2SC1
- BmaI1 enzyme = 56
- BmaI1 enzyme counterscreen = 6

9) Cc1cc2c(s1)Nc1ccccc1N=C2N1CCN(C)CC1
- BmaI1 enzyme = 69
- BmaI1 enzyme counterscreen = 36

10) COc1ccccc1OCC(O)COC(N)=O (configuration not stated)
- BmaI1 enzyme = 16
- BmaI1 enzyme counterscreen = 28

11) O=C1N(c2ccccc2)c2ccccc2C1(Cc1ccncc1)Cc1ccncc1
- BmaI1 enzyme = 60
- BmaI1 enzyme counterscreen = 13

12) C[C@]12CC3CC(N)(C1)C[C@@](C)(C3)C2
- BmaI1 enzyme = 10
- BmaI1 enzyme counterscreen = 10

13) CC(C)Cc1ccc(C(C)C(=O)O)cc1 (configuration not stated)
- BmaI1 enzyme = 2
- BmaI1 enzyme counterscreen = 14

14) CN1CCC(=C2c3ccccc3CCc3sccc32)CC1
- BmaI1 enzyme = -12
- BmaI1 enzyme counterscreen = -3

Compound profiles (already shown). Order of screens: BmaI1 enzyme, BmaI1 enzyme counterscreen
CC(Oc1c(Cl)cccc1Cl)C1=NCCN1 (configuration not stated) as listed: 56, 12
CC(C)Cc1ccc(C(C)C(=O)O)cc1 (configuration not stated) as listed: 2, 14
C[C@]12CC3CC(N)(C1)C[C@@](C)(C3)C2 as listed: 10, 10
NS(=O)(=O)c1cc2c(cc1C(F)(F)F)NC(Cc1ccccc1)NS2(=O)=O (configuration not stated) as listed: -3, 0
CC(=O)[C@H]1CC[C@H]2[C@@H]3C[C@H](C)C4=CC(=O)CC[C@]4(C)[C@H]3[C@@H](O)C[C@]12C as listed: -7, -4

Source: PubChem BioAssay
